Screening data as filed in PubChem.
H5N1 CPE: antiviral screen in MDCK cells, H5N1 avian flu; cytopathic effect, luminescence, 72 h; active compounds read high; no value below 0 was filed and about half of the inactive calls have no number; reference of the scale not given here; 96,000 tested, 0.07% active; inhibition, % at 50 µM; AID 740; in the data active means inhibition above about 25%
The depositor's hits bear a star; i = inactive. Not all compounds are listed; count on the stated rates, not on these rows.

#	molecule	H5N1 CPE
1	O=C1C2CC=CCC2C(=O)N1c1ccc(Cc2ccncc2)cc1 (stereo not drawn)	0.6
2	COc1ccc(/C(O)=C2/C(=O)C(=O)N(c3nc(C)c(C)s3)C2c2ccco2)cc1 (stereo not drawn)	1.0
3	CN1C(=O)CSc2ccc(NC(=O)N3CCC(N4CCCCC4)CC3)cc21	0.8
4	Cc1csc(NC(=O)c2ccccc2[N+](=O)[O-])n1	i
5	CCOC(=O)CNC(=O)c1cccnc1	i
6	C/C(=N\O)C(=O)OC1CC(C)CCC1C(C)C (stereo not drawn)	i
7	O=C(CSCC(=O)N1CCCCC1)Nc1nc(-c2ccc(Cl)s2)cs1	0.2
8	CCc1nc(SCC(=O)NCc2ccco2)c2c3c(sc2n1)CCCC3	i
9	Cc1noc(C)c1CSc1ccc(Br)cc1	i
10	COc1ccc(Oc2nc(C)nc3c2oc2ccccc23)cc1	i
11	CC(C)CC(c1nnnn1C1CCCC1)N1CCN(C(=O)c2ccco2)CC1 (stereo not drawn)	5.0
12	CCc1ccc(-c2csc(NC(=O)C3CCCO3)c2C(=O)OC(C)C)cc1 (stereo not drawn)	1.6
13	CC1CC(C)CN(c2ncc3c(n2)CC(c2ccccc2)CC3=O)C1 (stereo not drawn)	0.5
14	CCN(CC)CCN1C(=O)C(=O)/C(=C(/O)c2ccc(C)cc2)C1c1ccncc1 (stereo not drawn)	i
15	Cc1noc(C)c1COc1ccc(C(=O)NCc2ccccn2)cc1	i
16	Cc1ccc(C(=O)NC(=S)N2CCN(C)CC2)cc1	i
17	O=C(O)CC(C(=O)OCCOc1ccccc1)N1CCOCC1 (stereo not drawn)	i
18	COC(=O)c1ccc2ncccc2c1	0.2
19	CCOc1ccccc1C(=O)NCc1ccc2c(c1)OCO2	i
20	COc1cccc(N2CCN(C(=O)NC3CCCCC3)CC2)c1	i
21	COc1ccc(NC(C)=O)cc1NC(=O)CSc1nnc(-c2ccccn2)n1C	0.2
22	CCC1(O)CC(C(=O)OC)=NN1C(=O)c1ccccc1 (stereo not drawn)	i
23	COc1ccc(N2C(=O)C3C4C=CC(C4)C3C2=O)c(OC)c1 (stereo not drawn)	i
24	CCc1cc2c(=O)nc3n(c2s1)Cc1ccccc1/C3=C(/O)c1cccc([N+](=O)[O-])c1	0.9
25	CCn1c(N)c(C(=O)NC)sc1=S	i
26	Cc1cc(C)c(C#N)c(SCS(=O)c2ccc(C(C)(C)C)cc2)n1 (stereo not drawn)	0.1
27	CC(C)Cn1c(=O)c2ccccc2c2ccccc2c1=O	i
28	CCCCCOc1ccc(C(=O)NCC(=O)NCC(=O)OCC)cc1	i
29	COc1ccc(N(CC(=O)N/N=C/c2cccs2)S(=O)(=O)c2ccc(OC)c(OC)c2)cc1	5.2
30	S=c1[nH]nc(Cc2ccccc2)n1-c1ccccc1	0.4
31	CCCCn1nc2cc(C(=O)NCc3ccccc3)ccc2c1OCC	1.5
32	O=C(OCC(=O)N(C1CCCCC1)C1CCCCC1)c1ccco1	0.9
33	Cc1ccc(-c2csc3nnc(SCC(=O)NCc4ccc5c(c4)OCO5)n23)cc1	1.4
34	COc1cc2c(cc1OC)C1=NC(=O)CN1C(SCc1ccc(C)cc1)=N2	3.6
35	O=C1COc2ccc(C(=O)NCc3ccc4c(c3)OCO4)cc2N1	i
36	O=C1CCCN1c1ccc(S(=O)(=O)Oc2cccc(Cl)c2)cc1[N+](=O)[O-]	i
37	CC(=O)/C=C(\C)Nc1ccc(-c2cnc(-c3ccccc3)o2)cc1	i
38	CSc1ccc(C(=S)N2CCN(C(c3ccccc3)c3ccccc3)CC2)cc1	2.3
39	CCOC(=O)CCS(=O)(=O)c1nc(-c2ccccc2)cc(C(F)(F)F)n1	20.5
40	CCOC(=O)C1=C(c2ccccc2)N=C2SCC(=O)N2C1c1cccc(OC)c1 (stereo not drawn)	i
41	COc1cc(NC(=O)c2cccs2)c(C(=O)OCC(=O)NCc2ccccc2)cc1OC	i
42	CC(OCC(O)CN(C)CCOc1ccccc1)c1ccc(Cl)cc1 (stereo not drawn)	i
43	CCOc1ccccc1N1CCN(C2=C(NS(=O)(=O)c3cccs3)C(=O)c3ccccc3C2=O)CC1	i
44	Cc1ccc(/C=N/Nc2cccc3cccnc23)c(O)c1	i
45	COc1ccc(N2CCN(C(=O)Nc3ccc(S(=O)(=O)N(C)C)cc3)CC2)cc1	0.7
46	N#CCCN(Cc1ccccc1)C(=S)NC(=O)c1ccccc1	0.7
47	C=C(C)CN(CC)C(=O)COc1ccc(S(=O)(=O)Nc2ccc(OC)cc2)cc1	0.1
48	CCn1c(CNC(C)=O)nnc1SCC(=O)c1ccc(Br)cc1	0.5
49	O=C(OCC1OC(n2ccc(=O)[nH]c2=O)C(O)C1OC(=O)c1ccccc1)c1ccccc1 (stereo not drawn)	i
50	Cc1ccnc2nc(C(=O)NCCc3ccc(F)cc3)nn12	0.6
51	Cc1cc(C)cc(OCC(=O)Nc2ccccc2C(=O)NCc2ccco2)c1	i
52	Cc1c(C#N)c2ccccc2n1CC(=O)N1CCCC1	i
53	CCOC(=O)C1=C(O)/C(=C\c2ccc(CNC(=O)C(=O)Nc3ccccc3)o2)N=C1C	2.1
54	O=C(NCC1CCCO1)c1cc(-c2ccncc2)nc2ccc(S(=O)(=O)N3CCOCC3)cc12 (stereo not drawn)	i
55	CCCCC(CCC(=O)O)(C(=O)OCC)c1csc(N)n1 (stereo not drawn)	1.4
56	CCOC(=O)CN(C(=O)Cn1nnc(-c2ccc(C)cc2)n1)C(CC)C(=O)NC1CCCC1 (stereo not drawn)	0.1
57	Cn1c(NCCCN2CCOCC2)nc2c1c(=O)n(Cc1ccc(Cl)c(Cl)c1)c(=O)n2C	i
58	Cc1[nH]c2ccc(-c3nnc(SCC(=O)NCc4ccco4)n3Cc3ccccc3)cc2c1C	i
59	CN(C)c1nc(NCc2ccccc2)nc(Oc2ccc(=O)[nH]n2)n1	0.7
60	O=C(c1ccco1)N1CCN(c2cccc(Cl)c2)CC1	0.6

(listing goes on)
#	molecule	H5N1 CPE
61	COc1ccc(NC(=O)c2cc(CC(C)C)on2)cc1OC	i
62	Cn1cccc1Cc1nnc(SCC(=O)NCc2ccccc2)n1-c1ccc(F)cc1	2.5
63	CCOc1ccccc1C1C(C(N)=O)=C(C)Nc2nc(CCCO)nn21 (stereo not drawn)	0.5
64	Cc1ccc(Cn2ccc(NC(=O)c3nn(C)cc3Cl)n2)cc1	0.1
65	Cc1noc(C)c1COc1ccc(C(=O)OCC(=O)N2CC3(C)CC2CC(C)(C)C3)cc1 (stereo not drawn)	8.0
66	O=C(O)C1CC=CCC1C(=O)Nc1ccccc1C(=O)N1CCN(c2ccccc2)CC1 (stereo not drawn)	i
67	O=C(Cn1c(=O)oc2cc(S(=O)(=O)N3CCCC3)ccc21)N1CCN(c2ccccc2)CC1	i
68	CCOc1c(Cl)cc(C(=O)Nc2ccccc2C(=O)O)cc1Cl	i
69	CCOC(=O)Cc1nnc(NC(=O)CSc2nnc3c4ccccc4n(C)c3n2)s1	1.2
70	COc1ccc(OC)c(C2C3CN(C(C)C)CC=C3C(C#N)=C(N)C2(C#N)C#N)c1 (stereo not drawn)	1.8
71	Cn1cc([N+](=O)[O-])c(C(=O)Nc2ccn(Cc3c(F)c(F)cc(F)c3F)n2)n1	i
72	Cc1ccc(C(=O)NC2CCS(=O)(=O)C2)cc1S(=O)(=O)N1CCOCC1 (stereo not drawn)	0.4
73	O=C(Cc1ccccc1)NC(Nc1cccc2ccccc12)C(Cl)(Cl)Cl (stereo not drawn)	i
74	Cc1cccn2c(=O)c3cc(C(=O)NCCCN4CCCC4=O)n(C)c3nc12	1.6
75	CC(=O)CC(=O)NC(=NC1CCCCC1)Nc1nc(C)cc(C)n1	1.3
76	COC(=O)c1ccc(NC(=O)C2CCCN2S(=O)(=O)c2ccc(C)cc2)cc1 (stereo not drawn)	1.4
77	O=C1NC(Nc2ccccn2)(C(F)(F)F)C(=O)N1c1ccc(F)cc1 (stereo not drawn)	i
78	COCCNc1nc(C(C)(C)C)nc2c1nnn2Cc1ccccc1Cl	1.4
79	Cn1c(N)c(C(=O)COC(=O)CCc2c[nH]c3ccccc23)c(=O)n(C)c1=O	i
80	CC(=O)NC1=C(C#N)C(c2ccccc2)c2c(ccc3ccccc23)O1 (stereo not drawn)	0.5
81	Cc1cc(S(=O)(=O)N2CCN(c3ccc(F)cc3)CC2)c(C)s1	3.9
82	CCn1c(C)cc2c(c1=O)C(c1ccncc1)C(C#N)=C(N)O2 (stereo not drawn)	1.7
83	CCCCCCn1c(O)c(C=Nc2c(C)n(C)n(-c3ccccc3)c2=O)c(=O)[nH]c1=O	2.1
84	CC(C)(C)N1C(=O)c2ccc(C(=O)Nc3nccs3)cc2C1=O	i
85	CC(C)CNC(=S)NC1CC2CCCC(C1)N2Cc1cccs1 (stereo not drawn)	i
86	C=CCN(c1ccc(C(=O)NCCc2ccccc2)cc1)S(C)(=O)=O	0.8
87	CCN(CC)CCN1C(=O)C(=O)/C(=C(/O)c2c(C)[nH]c(C(=O)OC)c2C)C1c1cccs1 (stereo not drawn)	0.4
88	Cc1cc(NC(=O)c2cc3n(n2)C(C(F)(F)F)CC(c2ccc(Cl)c(Cl)c2)N3)no1 (stereo not drawn)	i
89	COc1ccc(/C(O)=C2\C(=O)C(=O)N(CC3CCCO3)C2c2cc(OC)ccc2OC)cc1 (stereo not drawn)	0.9
90	O=C(NCc1ccccc1)/C(=N\O)c1ccccc1	0.4
91	O=C(N/N=C/c1cccc(F)c1)c1cc(-c2ccco2)nc2ccccc12	i
92	O=C(Nc1ccc(N2CCOCC2)c(Cl)c1)C1CCCCC1	1.1
93	CCCCN(C)CCCNC(=O)c1ccc2c(c1)NC(=O)C(N1CCOCC1)S2 (stereo not drawn)	i
94	CC(=O)Nc1ccccc1OC(=O)N1CCOCC1	0.1
95	O=C(c1cccc(C(=O)N2CCN(c3ncccn3)CC2)c1)N1CCN(c2ncccn2)CC1	i
96	O=C1Cc2ccccc2Sc2ccc(Cl)cc21	0.1
97	Cc1cc(OCC[N+]2(C)CCCCC2)nc2ccccc12	1.0
98	CCCN1C(=O)/C(=C/C=C2\N(CC)c3ccccc3C2(C)C)SC1=S	i
99	COC(=O)Cc1csc(Nc2c(C)n(C)n(-c3ccccc3)c2=O)n1	0.2
100	FC(F)(F)c1cccnc1N1CCN(c2ncnc3nc[nH]c23)CC1	i
101	C=CCN1C(=O)C(Cc2ccc(OC)cc2)S/C1=N/N=C/c1ccco1 (stereo not drawn)	1.8
102	COc1cccc(Oc2ccc(N)cn2)c1	0.5
103	CC(C)CC(=O)NC1(C(F)(F)F)C(=O)Nc2c1c(=O)[nH]c(=O)n2Cc1ccco1 (stereo not drawn)	0.1
104	CNC(=O)N(C1=NCC(C)(C)S1)c1ccc(F)c(Cl)c1	i
105	Cc1ccc(CN2CCNC2=O)cc1	0.4
106	Cc1ccc(-c2cc(-c3nnc(SCC(=O)NCC(C)C)n3N)c3ccccc3n2)cc1	i
107	O=C(CCC(=O)OCC(=O)c1ccc(-c2ccccc2)cc1)Nc1cccc(Cl)c1	1.5
108	CCC(=NCCc1ccccc1)c1c(O)n(C2CCCCC2)c(=O)[nH]c1=O	1.4
109	CCCCC(=O)NC(=S)Nc1cccc(NC(=O)CC)c1	i
110	O=C(Nc1ccccc1C(=O)N1CCOCC1)C1COc2ccccc2O1 (stereo not drawn)	0.3
111	O=C(Nc1ccccc1Cl)c1ccc(S(=O)(=O)N2CCOCC2)cc1	i
112	O=c1c(Cc2ccc(Cl)cc2Cl)c(O)ccn1Cc1ccc(Cl)cc1	i
113	CC(=O)N1CCC(=NNS(=O)(=O)c2cccc([N+](=O)[O-])c2)CC1	i
114	CCOC(=O)c1cccc(NC(=O)C2CCN(S(=O)(=O)c3cnc[nH]3)CC2)c1	0.5
115	CC1(C)NC(=O)N(CC(O)COc2ccccc2C(=O)N2CCCCC2)C1=O (stereo not drawn)	0.6
116	CCOC(=O)N1CCC(NC(=O)CC(NS(=O)(=O)c2ccc(C)cc2)c2ccco2)CC1 (stereo not drawn)	0.2
117	CC(=O)Oc1ccc(-c2csc(Nc3cccnc3)n2)cc1	i
118	O=C(CSCc1c(Cl)cccc1Cl)Nc1ccc2c(c1)OCO2	i
119	CCOc1ccc(S(=O)(=O)N2CCN(c3ccccc3)CC2)c2cccnc12	5.1
120	CC(=O)Nc1cccc(N2CCCC2=O)c1	i

In the list so far, these have a tert-butyl group.
#	molecule	H5N1 CPE
26	Cc1cc(C)c(C#N)c(SCS(=O)c2ccc(C(C)(C)C)cc2)n1 (stereo not drawn)	0.1
78	COCCNc1nc(C(C)(C)C)nc2c1nnn2Cc1ccccc1Cl	1.4
84	CC(C)(C)N1C(=O)c2ccc(C(=O)Nc3nccs3)cc2C1=O	i

Four entries from above, field by field.
(102) COc1cccc(Oc2ccc(N)cn2)c1
  H5N1 CPE = 0.5
(103) CC(C)CC(=O)NC1(C(F)(F)F)C(=O)Nc2c1c(=O)[nH]c(=O)n2Cc1ccco1 (stereo not drawn)
  H5N1 CPE = 0.1
(104) CNC(=O)N(C1=NCC(C)(C)S1)c1ccc(F)c(Cl)c1
  H5N1 CPE = i
(105) Cc1ccc(CN2CCNC2=O)cc1
  H5N1 CPE = 0.4

(more compounds)
#	molecule	H5N1 CPE
121	CC(C)(C)c1cc(NC(=O)c2cccnc2)no1	1.0
122	CCOc1ccc(NC(=O)COC(=O)Cn2cnnn2)cc1OCC	1.1
123	CCOC(=O)c1ccc(NC(=O)Nc2cc(C)on2)cc1	0.6
124	CC(=O)Nc1ccccc1OCc1nnc(-c2cccs2)o1	0.1
125	O=C(c1cc(-c2cccs2)on1)N1CCCc2ccccc21	3.2
126	O=C(CCN1CCCCC1)NCNC(=O)CCN1CCCCC1	i
